Screening results from PubChem.
Marburg entry inh: qHTS for inhibitors of binding or entry into cells for Marburg Virus | Marburg virus pseudotyped entry inhibition, cell reporter; control for the full effect not named in the record; about a third of the inactives were read at about 46 µM | Potency, µM (highest dose often 37.8 µM), without a hit: at the highest dose activity change, negative = inhibition, hits mostly inhibitors | actives 1.8% (n = 300,000) | AID 540276, 2011; active = well fitted inhibition curve with a large enough effect; inconclusive = small, poorly fitted or top-dose-only effect, or effect the other way; inactive = flat fitted curve, though single readings scatter; tested in HEK293 cells; about a fifth of its hits are not listed in these tables; also: % is scaled to controls: 0 for no effect and ±100 for the full control effect; luciferase read-out
SARS PLP yeast: qHTS of Yeast-based Assay for SARS-CoV PLP; S. cerevisiae expressing SARS-CoV PLpro, growth rescue; control for the full effect not named in the record; Potency, µM (highest dose often 32.9 µM), for inactives: top-dose activity, positive = growth rescue; actives 0.19% (n = 330,000); AID 485353, 2010; also: 0% is about no effect; nearly all actives have a fitted effect of over 55% in size; growth read by luminescence after 48 h
RE007 growth inh: qHTS Assay for Inhibitors of the HIV-1 protein Vpr | S. pombe RE007 Vpr strain, BacTiter-Glo ATP luminescence, 24 h; control for the full effect not named in the record | Potency, µM (doses to about 92.2 µM), for the others: top-dose activity change, negative = less growth | actives 0.21% (n = 360,000) | AID 651644, 2012; active = well fitted falling curve with a large enough effect; inconclusive = small, poorly fitted or top-dose-only effect; inactive = no such curve, though single readings can be large or run the other way;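 also: % is scaled to controls: 0 for no effect and ±100 for the full control effect; nearly all actives have a fitted effect of over 50% in size; the assay follows cell death caused by Vpr and the record does not say whether a fall means rescue or toxicity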
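Fission yeast RE007 carrying one integrated HIV-1 vpr copy, seeded at OD 0.01 in PMG+AL medium with 23 nL pinned compound. Grown 24 h at 30 degrees; viability read by BacTiter-Glo luminescence after 5 min.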
Cruzain noTriton: qHTS Assay for Promiscuous and Specific Inhibitors of Cruzain (without detergent) | purified cruzain, Z-FR-AMC fluorescence, no detergent | Potency, µM, without a hit: max response, negative = inhibition, hits mostly inhibitors | Cruzipain (Trypanosoma cruzi), P25779 | AID 1476, 2009 | actives 2.3% (n = 200,000); active = well fitted curve in the direction sought with a large enough effect; inconclusive = small, poorly fitted or top-dose-only effect, or another doubt; inactive = no such curve, though single readings can be large; an effect the other way counts as inactive or inconclusive;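 also: plate controls were enzyme without inhibitor for no effect and buffer without enzyme for full effect; nearly all actives have a fitted effect of over 40% in size; top concentration of the series not given in the record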
Target sequence (P25779 123-467 limits assumed): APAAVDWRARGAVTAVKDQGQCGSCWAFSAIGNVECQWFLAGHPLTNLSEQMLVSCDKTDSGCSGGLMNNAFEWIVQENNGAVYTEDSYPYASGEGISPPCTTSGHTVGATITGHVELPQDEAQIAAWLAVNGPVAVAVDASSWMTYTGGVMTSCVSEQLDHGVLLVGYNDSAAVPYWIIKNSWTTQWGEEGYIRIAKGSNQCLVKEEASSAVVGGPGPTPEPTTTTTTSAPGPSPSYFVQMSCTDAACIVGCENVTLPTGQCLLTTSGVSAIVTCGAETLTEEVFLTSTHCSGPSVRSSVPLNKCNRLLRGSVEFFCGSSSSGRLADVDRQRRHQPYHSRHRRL
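Purified cruzain at 1.5 nM, pre-incubated 15 min with compound at room temperature in 100 mM sodium acetate pH 5.5, 5 mM DTT, 0.00005% Triton X-100. Reaction started with 2 uM Z-FR-AMC; AMC fluorescence increase over 60 s gives rate.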
Cruzain Triton: qHTS Assay for Promiscuous and Specific Inhibitors of Cruzain (with detergent). Cruzipain (Trypanosoma cruzi), P25779. purified cruzain, Z-FR-AMC fluorescence, 0.01% Triton. Potency, µM, for the others: max response, negative = inhibition, most hits filed as inhibitors. actives 0.43% (n = 200,000); active = well fitted curve in the direction sought with a large enough effect; inconclusive = small, poorly fitted or top-dose-only effect, or another doubt; inactive = no such curve, though single readings can be large; an effect the other way counts as inactive or inconclusive;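 also: plate controls were neutral wells for no effect and buffer without enzyme for full effect; nearly all actives have a fitted effect of over 40% in size; top concentration of the series not given in the record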
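Enzyme 1.5 nM, Z-FR-AMC 2 uM, NaOAc 100 mM pH 5.5, DTT 5 mM, Triton X-100 0.01%; 15 min RT compound preincubation; kinetic ex360/em450, 60 s delta.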
LASV entry inh: qHTS for Inhibitors of binding or entry into cells for Lassa Virus; actives 1.2% (n = 300,000); AID 540256, 2011; Lassa virus pseudotype entry inhibition, cell reporter; control for the full effect not named in the record; Potency, µM (titrated, usually from 37.9 µM), for the others: at the top dose activity change, negative = inhibition, most hits filed as inhibitors; active means well fitted inhibition curve with a large enough effect; inconclusive means small, poorly fitted or top-dose-only effect, or effect the other way; inactive means flat fitted curve, though single readings scatter; tested in HEK293 cells; also: % is scaled to controls: 0 for no effect and ±100 for the full control effect; nearly all actives have a fitted effect of over 50% in size; luciferase read-out
2A StopGo: High Throughput Screening for Foot and Mouth Disease Virus Antivirals; Potency, µM (highest dose often 57.9 µM), for inactives: at the top dose signal change, negative = less light; human cells with a luciferase reporter of 2A StopGo recoding; control for the full effect not named in the record; actives 1.2% (n = 410,000); active = well fitted falling curve with a large enough effect; inconclusive = small, poorly fitted or top-dose-only effect; inactive = no such curve, though single readings can be large or run the other way; tested in HEK293T cells; also: % is scaled to controls: 0 for no effect and ±100 for the full control effect; nearly all actives have a fitted effect of over 45% in size; luciferase light after 4 h
NS1 function inh: qHTS Assay for Inhibitors of Influenza NS1 Protein Function. S. cerevisiae slowed by influenza A NS1, growth recovery by OD600. Potency, µM (doses to about 46.1 µM), for inactives: top-dose activity, positive = more growth. actives 0.4% (n = 270,000); also: actives are rising curves; nearly all actives have a fitted effect of over 50% in size
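Recovery from NS1-induced slow growth read by OD600 in budding yeast switched to galactose assay medium (pH 6.0, -URA) at 1:100 dilution. Compound 23 nl per well; the matching strain lacking NS1 serves as control.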
The depositor's hits bear a star; ? = inconclusive; nt = no result given; [ ] = remark or other dose. Unless noted, calls follow the shape of the dose curve; as a rule, active means well fitted rising curve with a large enough effect; inconclusive means small, poorly fitted or top-dose-only effect; inactive means no such curve, though single readings can be large or run the other way. Potency is read from the fitted curve at half-maximal effect.

| compound | LASV entry inh | Cruzain Triton | SARS PLP yeast | Marburg entry inh | Cruzain noTriton | RE007 growth inh | NS1 function inh | 2A StopGo |
| --- | --- | --- | --- | --- | --- | --- | --- | --- |
| CC(C)N(Cc1nccn1C)C(=O)c1ccc2oc(Cc3ccccc3)nc2c1 | -8.8%[46.1 µM] | nt | 4.5% | 22.5%[46.1 µM] | nt | -13.0% | 0.0% | 1.0% |
| O=C(c1ccco1)N1CCN(Cc2nnnn2CCc2ccccc2)CC1 | 9.7% | 6.1% | -6.3% | 0.4% | 3.4% | -2.2% | -10.1% | 14.2% |
| O=[N+]([O-])c1ccc(S(=O)(=O)N(CCCN2CCOCC2)Cc2cccs2)cc1 | 10.1% | nt | -0.6% | 1.0% | nt | -4.9% | nt | -3.6% |
| COc1cccc(-c2cn3c(n2)sc2cc(C(=O)NCCc4ccccc4)ccc23)c1 | -12.9%[46.1 µM] | -6.6% | nt | nt | ? | nt | nt | 10.4% |
| CCCCn1c(N)c(N(CC(C)C)C(=O)Cc2ccc3c(c2)OCCO3)c(=O)[nH]c1=O | 18.2% | nt | 13.8% | -1.7%[46.1 µM] | nt | -24.8% | nt | -9.2% |
| S=C(NCc1ccccc1)N/N=C/c1cccs1 | nt | nt | 5.62µM* | nt | nt | ? | 11.9% | 14.7% |
| Cc1nc(-c2ccc(Cl)cc2)sc1CCNC(=O)C(=O)Nc1ccc2c(c1)OCO2 | -0.8%[46.1 µM] | -1.1% | nt | nt | -4.4% | nt | nt | 2.6% |
| CS(=O)(=O)c1ccccc1C(=O)Nc1ccccc1Cc1ccccc1 | ? | nt | 10.0% | 12.2%[46.1 µM] | nt | -7.8% | -0.9% | 4.4% |
| CCCCN(c1ccc(C(=O)OC)cc1)S(=O)(=O)c1ccccc1 | -16.3%[46.1 µM] | nt | -1.2% | -7.8%[46.1 µM] | nt | -10.2% | -32.6% | -23.5% |
| COC(=O)c1c(C)[nH]c(C(=O)COC(=O)Cn2cc(C(F)(F)F)ccc2=O)c1C | 23.0% | nt | -0.1% | ? | nt | 4.3% | nt | ? |
| COc1cccc(OC)c1C(=O)Nc1nc(COc2ccccc2)cs1 | nt | nt | -4.0% | nt | nt | -0.9% | 0.8% | 10.0% |
| COc1ccc(-c2nnn(CC(=O)N(CCN3CCOCC3)C(C(=O)NC3CCCCC3)c3ccco3)n2)cc1 (stereo not given) | nt | nt | 0.5% | nt | nt | 5.7% | -8.3% | 12.9% |
| Nc1nonc1N/N=C\c1ccccc1 | -7.2% | nt | -0.4% | -3.5% | nt | 6.1% | 5.8% | 70.0%[activator] |
| CC(C)(C)OC(=O)NCCCC(CCCNC(=O)OC(C)(C)C)C(=O)O | 2.7% | -4.0% | 12.4% | 8.3% | 4.6% | -15.6% | 4.7% | -16.5% |
| Cc1cn2c(=O)cc(COc3cccc(NC(=O)c4ccc(C(C)(C)C)cc4)c3)nc2s1 | 6.6%[46.1 µM] | -4.0% | nt | ? | ? | nt | nt | -3.9% |
| O=C(CSc1nc(Cc2ccccc2)nc2ccccc12)Nc1nc2c(s1)CCCC2 | ? | -8.8% | -7.8% | 0.1% | 25.1µM* | 4.8% | 12.0% | 5.6% |
| COc1ccc(C(=O)NNC(=O)CSc2nnc3ccccn23)cc1OC | 8.4%[46.1 µM] | nt | 0.6% | 2.3%[46.1 µM] | nt | -12.3% | nt | 8.2% |
| N#Cc1c(NC(=O)C2CC=CCC2C(=O)O)sc2c1CCCCCC2 (stereo not given) | 9.4% | -8.5% | -4.6% | -11.2% | 1.4% | 23.0% | 27.0% | -18.9% |
| CC(C)CC(NC(=O)C1CCCCC1)C(=O)NCc1ccccn1 (stereo not given) | -13.6% | -4.1% | -8.9% | ? | -10.8% | 5.1% | -5.9% | 10.0% |
| COc1ccc(C(=O)Nc2cccc(/C(C)=N/NC(=O)c3ccc([N+](=O)[O-])cc3)c2)cc1OC | 22.3% | 0.7% | -1.3% | -2.4% | -1.1% | 21.5% | -1.1% | -5.8% |
| Cn1cc(/C=C(\NC(=O)c2ccccc2Cl)C(=O)NCCN2CCOCC2)c2ccccc21 | nt | nt | 0.2% | nt | nt | 10.7% | -4.7% | -8.6% |
| Cn1nc(C(=O)NCc2ccc(F)cc2)c2ccccc2c1=O | 6.8% | -3.9% | -1.1% | -21.4% | -1.2% | 3.7% | -2.9% | -14.8% |
| CCc1nc2ccccc2nc1N1CCN(S(=O)(=O)c2c(C)cc(Cl)cc2C)CC1 | nt | nt | 0.8% | nt | nt | -2.1% | 3.7% | -21.7% |
| COc1nnc(-c2ccc(C)c(S(=O)(=O)NC(C)(C)CO)c2)c2ccccc12 | 3.7% | nt | ? | 0.2% | nt | 3.7% | -1.4% | -0.5% |
| CCC(=O)Nc1ccc(S(=O)(=O)N2CCC(c3nc4ccccc4[nH]3)CC2)cc1 | ? | nt | -3.6% | 3.1% | nt | 3.4% | nt | -13.9% |
| Cc1nc(-c2ccccc2)sc1-c1nc(-c2ccncc2)ncc1S(=O)(=O)c1ccccc1 | nt | -2.6% | 4.6% | 4.47µM* | ? | -18.1% | 9.3% | ? |
| CC(=O)N1C(C)(C)CC(=NOS(=O)(=O)c2ccccc2)CC1(C)C | nt | nt | -1.6% | nt | nt | 7.4% | 2.6% | 2.9% |
| Cc1cc(C)nc(N2CCCC(C(=O)NC3CC3)C2)n1 (stereo not given) | 10.2%[46.1 µM] | nt | -3.1% | -0.5%[46.1 µM] | nt | -8.2% | -9.6% | 11.8% |
| O=C(C1CCCN1S(=O)(=O)c1cccc2nsnc12)N1CCN(c2ccc(F)cc2)CC1 (stereo not given) | nt | nt | ? | nt | nt | 10.8% | 4.5% | -2.7% |
| CC(COc1ccc(/C=C/c2ccccc2)cc1)[N+](C)(C)C (stereo not given) | ? | -2.3% | nt | ? | 13.4% | -12.5%[18.4 µM] | -33.3% | -6.3% |
| COc1ccc(CC(=O)N2N=C(C)CC2(O)C(F)(F)F)cc1OC (stereo not given) | -16.3% | nt | 0.1% | 4.6% | nt | 4.3% | 0.2% | -8.5% |
| CCCn1nnc(NC(=O)COc2ccc(CC)cc2)n1 | 1.1% | -0.9% | -22.6% | 20.3% | -5.4% | 30.0% | -14.3% | -13.6% |
| Cn1cc(S(=O)(=O)N2CCc3ccccc32)cc1C(=O)Nc1ccc(Cl)cc1 | nt | nt | 2.9% | nt | nt | -1.4% | 24.1% | 28.2µM* |
| CCOC(=O)c1c(NC(=O)c2ccccc2)sc2c(O)c(CN(CC)CC)ccc12 | -1.8% | -1.1% | 0.3% | -28.6% | 15.8µM* | 8.2% | 9.7% | -14.8% |
| Cc1ccc(C(=O)N/C(=C\c2cccc([N+](=O)[O-])c2)C(=O)NC(Cc2ccccc2)C(=O)O)cc1 (stereo not given) | 3.9% | nt | -0.7% | -14.1% | nt | 0.6% | ? | -6.1% |
| CCc1ccc(NC(=O)c2cccn(Cc3cccc([N+](=O)[O-])c3)c2=O)cc1 | -2.6%[46.1 µM] | -1.4% | nt | nt | -4.9% | nt | nt | ? |
| O=S(=O)(Nc1cccc(Cl)c1)c1ccc(-n2cccn2)cc1 | nt | nt | 1.7% | nt | nt | 4.2% | -5.2% | 54.3%[activator] |
| CCN1C(=O)/C(=C\c2cn(-c3ccccc3)nc2-c2cccnc2)SC1=S | ? | nt | -0.2% | 11.1% | nt | -0.9% | 0.8% | -25.4% |
| CCOC(=O)C1CCN(S(=O)(=O)c2ccc(C(C)=O)cc2)CC1 | -12.7% | 1.3% | -2.8% | -24.8% | 3.0% | 6.6% | 4.1% | -13.6% |
| O=C(Nc1ccccc1C(=O)N1CCCC1)c1cccc(S(=O)(=O)N2CCCCC2)c1 | -27.1% | -0.1% | nt | -16.6% | 6.0% | -2.6% | -1.6% | 0.0% |
| Cc1ccc(NC(=O)CCl)cc1S(=O)(=O)N1CCCCCC1 | -24.8% | nt | 9.2% | ? | nt | 1.2% | nt | 22.4µM* |
| COc1cccc(/C=N/NC(=O)CNC(=O)c2ccco2)c1O | nt | nt | 0.8% | nt | nt | 8.2% | 0.9% | 12.7% |
| COc1ccc(C(=O)C2CCCN(C(=O)c3cc(C)on3)C2)cc1F (stereo not given) | 15.9%[46.1 µM] | nt | 1.1% | -1.4%[46.1 µM] | nt | -4.2% | -6.5% | -14.1% |
| CCc1ccc(CN2CCC(n3nccc3NC(=O)c3ccccc3Cl)CC2)cc1 | ? | nt | ? | ? | nt | -1.1% | 1.8% | 31.6µM* |
| O=C(CSc1ccc(-c2ccc(F)cc2)nn1)N1CCCc2ccccc21 | ? | -5.7% | -13.0% | ? | -7.3% | -1.0% | -5.5% | -24.4% |
| COc1ccc(NC(=S)NC(=O)c2cncc(Br)c2)cc1 | -0.6% | nt | nt | 0.0%[14.2 µM] | nt | -14.5% | nt | 16.5% |
| COc1ccc2c(c1OC)C(=O)N1N=C(c3ccc(O)cc3)CC21 (stereo not given) | -4.7% | -2.3% | 1.9% | -22.2% | -9.6% | -14.6% | 7.0% | 17.0% |
| CCOCCCn1c(SCC(=O)Nc2ccccc2CC)nc2ccccc2c1=O | -11.9%[46.1 µM] | 1.9% | nt | nt | -15.7% | nt | nt | -12.3% |
| CCCCn1c(N)c(N(CC(C)C)C(=O)CN2C(=O)c3ccccc3C2=O)c(=O)[nH]c1=O | 2.9% | nt | 5.7% | 5.3%[46.1 µM] | nt | -3.9% | nt | 22.1% |
| Cn1cccc1C(=O)c1ccc(Cl)cc1Cl | -16.3% | -3.0% | 3.3% | ? | -9.3% | -12.3% | 1.0% | -7.9% |
| COC(=O)c1ccccc1NC(=O)c1ccc(COc2cccc3ccccc23)o1 | -0.1% | -1.4% | 2.9% | -1.3% | 15.8µM* | -6.1% | 5.5% | 13.1% |
